# StopGo FLuc = lowers the firefly signal of an FMDV 2A StopGo reporter | 120,000 compounds, 0.23% hits | HEK cells with a luciferase reporter of 2A StopGo recoding | AID 1745856 | Potency, µM (highest dose often 57.5 µM), for the others: at the highest dose signal change, negative = less light; active = well fitted falling curve with a large enough effect; inconclusive = small, poorly fitted or top-dose-only effect; inactive = no such curve, though single readings can be large or run the other way; further: nearly all actives have a fitted effect of over 60% in size; overnight with compound
# StopGo RLuc = lowers the Renilla signal of an FMDV 2A StopGo reporter; AID 1745857; HEK cells with a luciferase reporter of 2A StopGo recoding; 120,000 compounds, 0.32% hits; Potency, µM (highest dose often 57.5 µM), without a hit: top-dose signal change, negative = less light; active means well fitted falling curve with a large enough effect; inconclusive means small, poorly fitted or top-dose-only effect; inactive means no such curve, though single readings can be large or run the other way; further: nearly all actives have a fitted effect of over 55% in size; overnight with compound
# An asterisk follows results filed as active; ? = inconclusive; & = joins results of further samples; [ ] = another dose, or the depositor's remark. On the % scale 0 is the no-effect control and ±100 the full control effect; potency means the concentration at half of the fitted maximal effect.
SMILES,StopGo FLuc,StopGo RLuc
Cc1cc(C)cc(-n2ccnc2SCC(=O)Nc2ccc(C)cc2C)c1,-6%,2%
O=C(NCc1ccccc1Cl)c1ccc(NC(=O)N2CCSc3ccccc32)cc1,-4%,-3%
COc1cccc(/C=C(/C#N)c2nc3ccccc3[nH]2)c1OC(C)C,37%[activator],?
NC(=O)C(OC(=O)C12CC3CC(CC(C3)C1)C2)c1ccccc1 (stereo not given),1%,-3%
COc1ccc(C2=CC(c3ccc(OC)c(OC)c3)n3nnnc3N2)cc1 (stereo not given),47%[activator],1%
Cc1cc(=O)n2c3ccccc3n(CC(O)CN3CCN(c4ccccc4)CC3)c2c1C#N (stereo not given),18%,10%
Cc1ccc(Nc2nc(NC3CCCC3)nc3c2cnn3-c2ccccc2)cc1,5%,10%
CN(C)C(=O)CCS(=O)(=O)Cc1coc(-c2ccc(F)cc2)n1,-4%,-10%
COc1ccc(C(c2c(C)n(C)n(-c3ccccc3)c2=O)c2c(C)n(C)n(-c3ccccc3)c2=O)cc1O,36%[activator],41%[activator]
O=C1C(c2ccc(F)cc2)N(Cc2ccccc2Cl)C(=O)CN1C1CCCCC1 (stereo not given),-11%,47%[activator]
COC(=O)c1ccc(/C=C/C(=O)c2ccccc2)o1,23%,7%
COc1ccc(C)cc1S(=O)(=O)Nc1ccc2c(c1)CCN2C(=O)c1cccnc1,14%,62%[activator]
CCCCCn1nc(C(=O)OCC(=O)c2cc(C)n(CCC)c2C)c2ccccc2c1=O,54%[activator],4%
O=C(CC1SCCNC1=O)Nc1ccc(F)cc1 (stereo not given),0%,-2%
COc1ccc(C(=O)COC(=O)c2ccc(OC(F)F)c(OC)c2)c(OC)c1,0%,-4%
CC1CCN(C(=O)C(=O)N2CCN(c3nc(-c4ccco4)c4c(c3C#N)CCC4)CC2)CC1,-8%,-1%
CC(C)(C)c1ccc(OCC(=O)Nc2ccc(Cl)cc2C(=O)c2ccccc2)cc1,-11%,-16%
COc1ccc(C(=O)c2cccc(C(=O)c3ccc(OC)cc3)c2)cc1,-3%,0%
CCCCN(CCCC)C(=O)c1csc(Br)c1,8%,3%
Cc1ccccc1C(=O)N1CC=C(c2c[nH]c3ccccc23)CC1,-1%,-11%
Cc1ccc(CNC(=O)C2CCN(Cc3ccc(C(F)(F)F)cc3)CC2)cc1,-26%,?
N/C(=C\C(=O)/C=C/c1ccccc1)C(Cl)(Cl)Cl,?,?
COc1ccc(CNC(=O)Cc2c(C)c3cc(Cl)c(O)cc3oc2=O)cc1,17%,0%
CCC(COC(=O)c1cc(OC)c(OC)c(OC)c1)(c1ccccc1)N(C)C (stereo not given),16%[11.5 µM],10%
Cc1cccc(NC(=O)c2nn(-c3ccccc3)c(=O)c3ccccc23)c1C,-9%,-14%

# Sorted by heavy-atom count (ascending): part of the list above.
SMILES,StopGo FLuc,StopGo RLuc
Cc1ccccc1C(=O)N1CC=C(c2c[nH]c3ccccc23)CC1,-1%,-11%
Cc1cc(C)cc(-n2ccnc2SCC(=O)Nc2ccc(C)cc2C)c1,-6%,2%
Cc1ccc(Nc2nc(NC3CCCC3)nc3c2cnn3-c2ccccc2)cc1,5%,10%
CCCCCn1nc(C(=O)OCC(=O)c2cc(C)n(CCC)c2C)c2ccccc2c1=O,54%[activator],4%

# The listing picks up, starting 4 compounds before the break.
SMILES,StopGo FLuc,StopGo RLuc
N/C(=C\C(=O)/C=C/c1ccccc1)C(Cl)(Cl)Cl,?,?
COc1ccc(CNC(=O)Cc2c(C)c3cc(Cl)c(O)cc3oc2=O)cc1,17%,0%
CCC(COC(=O)c1cc(OC)c(OC)c(OC)c1)(c1ccccc1)N(C)C (stereo not given),16%[11.5 µM],10%
Cc1cccc(NC(=O)c2nn(-c3ccccc3)c(=O)c3ccccc23)c1C,-9%,-14%
Cc1cccc(Cc2cnc(NC(=O)C3=Cc4ccccc4OC3)s2)c1,28%,3%
CC(C)NC(=O)COCc1cc(-c2ccc3c(c2)OCO3)on1,11%,11%
Cc1cc(C)c2c(C)c(C(=O)Nc3nonc3-c3cccs3)oc2c1,-13%,-19%
CCc1nc2ccccc2c(C)c1C(=O)O,-5%,-14%
Cc1cc(N2CCOCC2)nc(Nc2ccc(NC(=O)CC(C)(C)C)cc2)n1,?,?
C[C@H]1C[C@H](O)c2ccsc2S1(=O)=O,-5%[11.5 µM],-4%
CCOc1ccc(-c2nc3c4c5c(sc4ncn3n2)COC(C)(C)C5)cc1,5%,-4%
COC(=O)c1cccc(NC(=O)c2cc(=O)c3cc(C)ccc3o2)c1,9%,1%
COc1cccc(-c2nc(COc3ccccc3C#N)cs2)c1OC,35%[activator],10%
Cc1cccc(Cn2cnc3c(cnn3-c3ccc(Cl)cc3)c2=O)c1,-14%,-12%
CNC(=O)c1ccc(-c2nc(CN3CCN(C(=O)Nc4ccccc4Cl)CC3)c(C)o2)cc1,19%,5%
O=C(O)c1ccccc1C(=O)Cc1ccc(I)cc1,0%,5%
COc1ccc2cnn(CC(=O)Nc3ccc(F)c(Cl)c3)c(=O)c2c1OC,-2%,-5%
Cc1cccc(CCNC(=O)C2CCC(CNS(=O)(=O)c3c(C)cc(C)cc3C)CC2)c1 (stereo not given),-24%,2%
O=C(CCc1ncc(-c2ccccc2Cl)o1)NCc1ccccc1Cl,24%,14%
C/C(=N/Nc1ccc(S(=O)(=O)Nc2ccccc2)cc1[N+](=O)[O-])c1ccccn1,1%,147%[activator]
COc1cccc(CNC(=O)c2nc(Cn3nc(C)c(Br)c3C)no2)c1,-15%,4%
O=C(CN1CCN(CC(=O)N2CCCCCC2)CC1)NCCc1c[nH]c2ccccc12,-10%,-15%
CCOc1ccc(NC(=O)Cc2nc(-c3ccccc3)oc2C)cc1OC,5%,1%
COc1ccc(-c2nc3scc(CCNS(=O)(=O)c4ccc(F)cc4F)n3n2)cc1OC,-12%,112%[activator]
CN(C)c1ccc(CNC(=O)c2cc3ccccn3n2)cc1,123%[activator],23%
Cc1ccccc1C(=O)Nc1ccc2nc(N3CCN(CCC#N)CC3)cc(C(=O)O)c2c1,5%,-5%
CCOc1ccc(CNC(=O)CCc2cn(CC)c3ccccc23)cc1,-8%,-2%
CC(=O)N1c2ccc(S(=O)(=O)NCC3CCC(C(=O)Nc4ccc(C)cc4)CC3)cc2CC1C (stereo not given),25%,28%
Cc1ccc(-c2c3c(=O)n(C)c(=O)n(C)c3c3c(C)nc4ccccc4n23)cc1,-9%,-12%

# Continued.
SMILES,StopGo FLuc,StopGo RLuc
NC(=O)C1CCN(C(=O)C2CC(c3ccc(Cl)cc3)=NO2)CC1 (stereo not given),50%[activator],2%
CCCCn1c(C)c(C)c(-c2nc3ccccc3[nH]2)c1NC(=O)C(C)C,41%[activator],13%
CCN1CCC(N(Cc2ccc(F)cc2)C(=O)Nc2ccc(C)c(F)c2)CC1,0%,6%
CC(C)Cc1nc(N2CCN(CC(=O)N3CCCCC3)CC2)c(C#N)c2c1CCC2,-16%,-11%
Cc1cc(C)cc(-n2c(SCC(=O)Nc3ccccc3F)nc3c(oc4ccccc43)c2=O)c1,13%,10%
CCc1ccccc1NC(=O)CC1Sc2ccc(C(F)(F)F)cc2NC1=O (stereo not given),-17%,-11%
COc1ccc(CNC(=O)CCc2nc(-c3ccc(C)cc3)no2)c(OC)c1,0%,29%
CC(C)(C)NC(=O)NC(=O)CN1CCN(S(=O)(=O)c2ccc3c(c2)CCCC3)CC1,-11%,7%
O=C(NCC#Cc1ccccc1)c1ccc2nccnc2c1,6%,-1%
O=C(CCCc1c[nH]c2ccccc12)N1CCCCC1,8%,123%[activator]
Cc1cc(C(=O)C2CC(=O)Nc3c2c(C)nn3-c2ccc(F)cc2F)c(C)s1 (stereo not given),-7%,-6%
C(=N\Nc1ccc2ccccc2n1)/c1cccs1,-79%,?
Cc1cccc(C(=O)Nc2ccc3nc(SCCOc4ccccc4)sc3c2)c1,-1%,-9%
COc1ccc(C(=O)Nc2c(NC3CCCC3)c3ccccc3oc2=O)cc1OC,12%,6%
CCN(CC)S(=O)(=O)c1cccc(NC(=S)Nc2ccc(C)c(C)c2)c1,?,-11%
Cc1cccc(-c2nc3n(CC(=O)N4CCCC4)c(C)cc(=O)n3n2)c1,9%,-3%
CC(C)[C@H](NC(=O)Cc1cccc2ccccc12)C(=O)O,160%[activator],14%
CCc1ccc(N2CN(Cc3cccnc3)Cn3c2nc(C)c(C)c3=O)cc1,175%[activator],11%
CCOC(=O)c1c(C)[nH]c(CCC(=O)NCc2cccc(OC)c2)c1C,-14%,3%
Cc1nc2cc(F)ccc2cc1C(=O)NC(C1CC1)C1CC1,?,?
NC(=O)CC[C@@H](N)C(=O)O,-2%[11.5 µM],9%
CC(C)(C)N1CC(c2nc3ccccc3n2Cc2ccc3ccccc3c2)CC1=O (stereo not given),?,?
COc1cc(C#N)cc(Cl)c1OCc1nnc(-c2ccccc2)o1,22%,8%
Cc1ccc(NS(=O)(=O)c2ccc3[nH]c4c(c3c2)CCCCC4)cc1,10%,343%[activator]
CCOc1ccc(O)c(C=NC2CCCC2)c1,2%,-7%

# (next part)
SMILES,StopGo FLuc,StopGo RLuc
COc1cccc(C(=O)C2COC(=O)C2)c1 (stereo not given),18%,-10%
CC(=O)Nc1ccc(NC(=O)c2csc(NCCC(C)C)n2)cc1,10%,0%
CCOc1ccc(/C=C/c2nc(C#N)c(N3CCN(CC)CC3)o2)cc1,21%&12%,4%&3%
Cc1nn(-c2ccc(N3CCOCC3)nn2)c(C)c1CCC(=O)NCc1ccco1,15%,0%
CC1CCCC/C1=N\NC(=S)Nc1ccccc1C(F)(F)F (stereo not given),62%[activator],51%[activator]
Cc1ccc(F)cc1C(=O)Nc1nc(C)c(C)s1,210%[activator],15%
Cc1ccc(/C=N/Nc2ccc3ccccc3n2)s1,122%[activator],9%
COc1ccc(CCNc2nc3cc(OC)c(OC)cc3c3nc(-c4cccnc4)nn23)cc1OC,0%,-14%
CCOC(=O)c1cc2c(=O)n3ccccc3nc2n(CCOC)c1=NC(=O)C(C)(C)Oc1ccc(Cl)cc1,-19%,-8%
Fc1ccc(CSC2=NCCN2)c(Br)c1,36%[activator],39%[activator]
COc1ccc(CNCCc2c[nH]c3ccccc23)cc1,-11%,-12%
N#C/C(=C/c1ccc(F)cc1)C(=O)Nc1cccc2ncccc12,2%,8%
CCN(Cc1ccc(Br)s1)C(=O)Cn1nnc(-c2ccccc2)n1,1%,10%
O=C(Nc1cccc(F)c1F)C1CCN(c2ncccn2)CC1,11%,13%
O=C(COc1ccccc1F)Nc1nnc(SCc2cc(=O)n3ccccc3n2)s1,-21%,-7%
Fc1ccc(-c2cc(-c3nc(-c4ccc(Cl)cc4)no3)[nH]n2)cc1,-15%,-14%
COc1cccc(Nc2nc(-c3ccc4c(c3)CCC(=O)N4)cs2)c1,0%,-1%
CC(N)Cc1ccc(N(C)C)cc1 (stereo not given),79%[activator],40%[activator]
COc1cc(/C=C2\Oc3cc(OS(C)(=O)=O)ccc3C2=O)cc(OC)c1OC,3%,-2%
Cc1ccc2c(Cl)cc(Cl)c(OCC(=O)N3CCOC(C)C3)c2n1 (stereo not given),15%,11%
COc1ccc(Br)cc1CNC(=O)CCC(=O)N1CCSc2nc(C)cc(C)c21,0%,-4%
Cc1c(C(=O)NCc2cccc(Cl)c2)sc2ncnc(N(C)C3CCCCC3)c12,13%,5%
COc1ccc(CCNC(=O)CCCCn2c(=O)c3ccccc3n(CC(=O)Nc3ccccc3C)c2=O)cc1OC,-24%,-17%
CC(=O)c1c(C)n(-c2ccc(Cl)cc2)c2ccc(OC(=O)COc3ccccc3)cc12,?,-17%
CSC(C)C(=O)Nc1ccc(Br)c(C)c1 (stereo not given),0%,0%

# Looked up by compound from the list above (5):
SMILES,StopGo FLuc,StopGo RLuc
COc1ccc(CCNc2nc3cc(OC)c(OC)cc3c3nc(-c4cccnc4)nn23)cc1OC,0%,-14%
CC1CCCC/C1=N\NC(=S)Nc1ccccc1C(F)(F)F (stereo not given),62%[activator],51%[activator]
Cc1nn(-c2ccc(N3CCOCC3)nn2)c(C)c1CCC(=O)NCc1ccco1,15%,0%
O=C(COc1ccccc1F)Nc1nnc(SCc2cc(=O)n3ccccc3n2)s1,-21%,-7%
COc1ccc(Br)cc1CNC(=O)CCC(=O)N1CCSc2nc(C)cc(C)c21,0%,-4%

# New compounds follow.
SMILES,StopGo FLuc,StopGo RLuc
CS(=O)(=O)c1cccc(NC(=O)CSc2nc(C3CC3)n(-c3ccccc3)n2)c1,17%,115%[activator]
CC(NC(=O)c1cc(-c2ccncc2)nc2ccccc12)c1ccco1 (stereo not given),4%,18%
CN(Cc1ccccc1)S(=O)(=O)c1nnc(NC(=O)c2ccccc2)s1,-13%,81%[activator]
Cc1cc(C(C#N)c2ccc(Cl)cc2)c(Cl)cc1NC(=O)c1cc(I)cc(I)c1O (stereo not given),-31%[11.5 µM],11µM*
COc1ccc(C(=O)/C(=C/c2ccccn2)c2nc3ccccc3o2)cc1,-102%,28µM*
O=C(NCc1ccc(N2CCCC2)nc1)c1ccc(Cl)c(Cl)c1,0%,8%
CCOC(=O)N1CCC(NC(=O)c2cnn(-c3cccc(C)c3)c2C2CCN(C(=O)OC(C)(C)C)CC2)CC1,-7%,-4%

# Record cards, as listed above. Values in the order: StopGo FLuc	StopGo RLuc
# CCOC(=O)N1CCC(NC(=O)c2cnn(-c3cccc(C)c3)c2C2CCN(C(=O)OC(C)(C)C)CC2)CC1 as listed: -7%	-4%
# CC(NC(=O)c1cc(-c2ccncc2)nc2ccccc12)c1ccco1 (stereo not given) as listed: 4%	18%

# Assay outcomes (PubChem)
